D2 potentiator = potentiates the human D2 dopamine receptor allosterically | P14416 | potentiation, % (no concentration beside the values) | DiscoveRx D2 beta-arrestin cells, luminescence, 90 min; 100% = 57 uM dopamine signal | 0.23% of 360,000 active; active = potentiation of 50% or more; inconclusive = 30% to 50%; inactive = 30% or less;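 note: compound concentration not given in the record; tested on top of an EC20 dose of dopamine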
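D2 cells co-treated with compound plus 50 nM dopamine (EC20) for 90 min at 37 deg C to detect potentiation. Beta-arrestin recruitment was read as enzyme-fragment luminescence after 1 h at ambient temperature. Full response was set by 57 uM dopamine.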
ClpP mod = qHTS Assay for Activators of ClpP. ATP-dependent Clp protease proteolytic subunit (Bacillus subtilis (strain 168)), P80244. purified B. subtilis ClpP, FRET peptide cleavage, 20 min. Potency, µM (doses to about 57.5 µM), inactives show top-dose activity change, negative = active. 1.9% of 340,000 active. AID 651965, 2013; active = well fitted falling curve with a large enough effect; inconclusive = small, poorly fitted or top-dose-only effect; inactive = no such curve, though single readings can be large or run the other way; note: potency is the fitted concentration of half-maximal effect; the source files actives as falling curves though it sought activators and does not explain the sign; nearly all actives have a fitted effect of over 65% in size; many hits overshoot -100%
Target sequence (P80244 whole entry, looked up): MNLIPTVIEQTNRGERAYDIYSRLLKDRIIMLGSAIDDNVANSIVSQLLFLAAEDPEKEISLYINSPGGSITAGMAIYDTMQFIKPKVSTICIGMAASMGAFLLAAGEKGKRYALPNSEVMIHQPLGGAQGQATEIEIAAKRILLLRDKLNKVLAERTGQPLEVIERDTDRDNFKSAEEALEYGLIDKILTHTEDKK
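ClpP 10 microg/mL final, pH 8 Tris/KCl buffer with BSA, glycerol, Tween-20; compound pinned in; FRET-FV substrate; RT 20 min; Ex320/Em430; ΔFRET vs ADEP 5.8 microM, DMSO, no enzyme.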
Sfp inh = Sfp phosphopantetheinyl transferase inhibition. Potency, µM, inactives show max response, negative = inhibition, actives largely listed as inhibitors. AID 1490. 3.5% of 310,000 active. Biochemical Sfp PPTase activity, qHTS; active = well fitted inhibition curve with a large enough effect; inconclusive = small, poorly fitted or top-dose-only effect, or another doubt; inactive = no such curve, though single readings can be large or run the other way;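 note: the enzyme is Sfp with the accession as filed and its product quenches rhodamine fluorescence; potency is the fitted concentration of half-maximal effect; 0% = enzyme reaction without inhibitor and -100% = no enzyme wells; top concentration of the series not given in the record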
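Sfp 15 nM + cpd, 15 min RT; start w/ rhodamine-CoA 5 uM, BHQ-2-YbbR 12.5 uM (final); 50 mM Hepes pH 7.6, 10 mM MgCl2, 0.01% NP-40, 0.01% BSA; read 525/598 nm at 0 and 30 min.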
gsp agonist = gsp mutant agonism; 0.13% of 340,000 active; gsp mutant cells, cAMP HTRF, 30 min; control for the full effect not named in the record; AID 624287; Potency, µM (doses to about 76.9 µM), without a hit: at the top dose activation (cAMP increase), actives largely listed as activators; active = well fitted activation curve with a large enough effect; inconclusive = small, poorly fitted or top-dose-only effect, or another doubt; inactive = no such curve, though single readings can be large or run the other way; cell line not stated here;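 note: phosphodiesterase inhibitor Ro 20-1724 added with compounds to block cAMP breakdown; potency is the fitted concentration of half-maximal effect; nearly all actives have a fitted effect of over 60% in size; about a fifth of the inactives were tested at one dose only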
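Cells stably selected in G418 were plated at 2000/well, grown 16-24 hr, then given compounds in DMSO with the PDE inhibitor […] (300 uM solution added) for 30 min at 37C; cAMP was read by HTRF.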
gsp antagonist = antagonists of gsp mutant (McCune-Albright syndrome). gsp-mutant cells, cAMP HTRF, 30 min; control for the full effect not named in the record. Potency, µM (highest dose often 76.9 µM), inactives show top-dose activity change, negative = inhibition, usual class: inhibitors. 0.4% of 340,000 active; active = falling curve of any shape with a large fitted effect; inconclusive = falling curve, mostly with a smaller effect; inactive = flat or rising curve; cell line not stated here;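 note: intracellular cAMP measured with PDE inhibitor Ro 20-1724 present during compound exposure; potency is the fitted concentration of half-maximal effect; % is set by controls: 0 for no effect and ±100 for the full control effect; nearly all actives have a fitted effect of over 65% in size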
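Cells, 2000/well, grown 16–24 h in DMEM 10% FBS with 0.5 mg/ml G418, then compounds plus […] (300 uM addition stock), 30 min at 37C. cAMP read by HTRF (cAMP-d2 and anti-cAMP antibody-K in lysis buffer) after 30 min RT.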
TRPV1 potentiator = potentiators of human vanilloid receptor 1 (TRPV1) | TRPV1-expressing cells, Fluo-8 calcium influx, capsaicin EC20 potentiation; host cell line not named in the record; control for the full effect not named in the record | potentiation, % at 8.33 µM | 0.02% of 320,000 active | AID 540277; active means potentiation above 80%; inconclusive means 30% to 80%; inactive means below 30%; note: 0% is about no effect
Target sequence (Q8NER1 whole entry, looked up): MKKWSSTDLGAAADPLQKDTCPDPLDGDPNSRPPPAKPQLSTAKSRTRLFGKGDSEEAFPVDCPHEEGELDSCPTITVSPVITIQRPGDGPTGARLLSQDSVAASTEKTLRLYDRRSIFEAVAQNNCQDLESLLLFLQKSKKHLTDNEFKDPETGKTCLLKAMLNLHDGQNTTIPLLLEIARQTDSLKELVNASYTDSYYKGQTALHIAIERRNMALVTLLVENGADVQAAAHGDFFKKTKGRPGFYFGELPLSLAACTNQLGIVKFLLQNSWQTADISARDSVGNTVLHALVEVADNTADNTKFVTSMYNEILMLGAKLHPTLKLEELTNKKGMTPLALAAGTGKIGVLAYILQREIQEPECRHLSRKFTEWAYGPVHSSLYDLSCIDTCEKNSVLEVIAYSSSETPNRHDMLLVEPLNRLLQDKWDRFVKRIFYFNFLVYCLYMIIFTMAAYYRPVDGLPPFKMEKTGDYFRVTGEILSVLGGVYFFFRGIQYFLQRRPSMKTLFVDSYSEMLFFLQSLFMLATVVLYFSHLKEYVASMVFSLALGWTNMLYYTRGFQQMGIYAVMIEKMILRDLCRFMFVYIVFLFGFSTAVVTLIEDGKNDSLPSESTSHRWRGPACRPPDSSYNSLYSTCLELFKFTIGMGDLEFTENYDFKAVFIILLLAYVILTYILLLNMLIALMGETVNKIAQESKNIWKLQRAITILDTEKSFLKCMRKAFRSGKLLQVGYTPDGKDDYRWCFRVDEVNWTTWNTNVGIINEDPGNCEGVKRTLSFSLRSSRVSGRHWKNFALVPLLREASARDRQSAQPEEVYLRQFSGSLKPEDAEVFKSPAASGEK
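Cells expressing TRPV1 were dye-loaded with Fluo-8 and read kinetically: 10 s baseline, 3 min after compound (agonist portion), then 2 min after EC20 capsaicin (allosteric enhancer portion). Calcium-bound dye fluorescence at 480/520 nm.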
Menin MLL FP FL = displaces fluorescein MLL peptide from human menin; Fluorescence polarization, fluorescein-MLL peptide displacement from menin; 290,000 tested, under 10 active; FP activity change, % at 61.4 µM; AID 1766; inconclusive = falling polarisation curve, or a change in total fluorescence; inactive = total fluorescence flat and polarisation flat or rising; no compound was filed as active; the % refers to the polarisation; negative = inhibition;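 note: % of control where 0% means no effect; inhibitors lower the polarisation; unlabelled MLL peptide was the positive control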
Starred values were filed as active, the others as inactive; ? = inconclusive; nt = no result given; & = joins results of further samples; [ ] = dose if it differs, or a comment. No enrichment for hits. About 5.1% of those tested had a hit in this group.

smiles	D2 potentiator	TRPV1 potentiator	Sfp inh	ClpP mod	gsp antagonist	gsp agonist	Menin MLL FP FL
Cc1nc2ccc(NC(=O)c3ccc([N+](=O)[O-])cc3)cc2[nH]1	1	-4	0%	-1.2%	-2%	-3%[15.4 µM]	-6.1
Cc1ccccc1N1CC(C(=O)N2CC(C)CC(C)C2)CC1=O (stereo not given)	-6	-28	nt	0.7%	-13%	-27%[15.4 µM]	nt
CC(=O)[C@@H]1[C@@H](C(=O)c2ccc(F)cc2)[C@]2(C(=O)Nc3ccccc32)[C@H]2C=Cc3cc(F)ccc3N12	-2	8	20µM*	nt	-11%	4%[15.4 µM]	3.8
CN1/C(=C\C(=O)C(F)F)C(C)(C)c2ccccc21	-12	-10	7%	-4.4%	2%	8%	-1.1
O=C(NCCCN1CCCCC1)C1CCC(CNS(=O)(=O)c2cccc3nsnc23)CC1 (stereo not given)	-2	-3	23%	-1.0%	4%	28%	nt
Cc1cc(-c2ccccc2)nc(N2CCN(c3ccccn3)CC2)n1	14	-5	-27%	50%	14%	0%	-3.8
CC(C)CCN(C(=O)CNC(=O)c1ccco1)C(C(=O)NC1CCCCC1)c1cccnc1 (stereo not given)	-6	-8	12%	1.2%	3%	-8%[15.4 µM]	0.7
Cc1ccccc1CN1CCNC(=O)C1CC(=O)NCCC1=CCCCC1 (stereo not given)	-16	9	-6%	-4.8%	-7%	2%[15.4 µM]	5.2
CCOC(=O)N1CCN(C(=O)c2ccc3c(c2)NC(=O)C(N2CCOCC2)S3)CC1 (stereo not given)	9	5	19%	-1.1%	-1%	-9%	1.8
Cn1c(N)c(C(=O)CCl)c(=O)n(Cc2ccccc2)c1=O	-16	6	25%	0.4%	-8%	-3%	4.2
Cc1cc(C)c(S(=O)(=O)N2CCCC(C(=O)N3CCCC3)C2)c(C)c1 (stereo not given)	-10	-11	2%	1.2%	5%	?	-3.2
C=C(C)c1cccc(C(C)(C)NC(=O)N2CCC(C)CC2)c1	-19	-9	-8%	1.1%	-1%	-36%[inhibitor]	1.7
Cc1ccc(S(=O)(=O)N2CC(O)CC2C(=O)OCC(=O)Nc2ccc([N+](=O)[O-])cc2C(F)(F)F)cc1C (stereo not given)	16	nt	nt	-0.8%	0%	-1%[15.4 µM]	nt
CCN1CCN(Cc2ccc(NC(=O)c3cc(NC(=O)C(=O)c4c[nH]c5ccccc45)cc(OC)c3)cc2C(F)(F)F)CC1	-2&-19	?	50µM*	-9.5%&-9.6%	18%	-50%[inhibitor]	3.8
C=C(C)c1nc(N)nc(N)n1	-1	3	12%	-3.5%	2%	-34%[inhibitor]	4.8
Cc1nc(Cl)c2c(n1)NC(=O)CO2	-14	3	19%	-1.1%	4%	25%	0.4
O=S(=O)(NC(=NC1CCCCC1)c1ccccc1)c1ccccc1	1	-18	26%	0.9%	-13%	-47%[inhibitor]	nt
O=C(N/N=C/c1cccc([N+](=O)[O-])c1)c1ccc2c(c1)OCCO2	-34	-30	-6%	1.0%	-7%	-10%	-1.0
CCCCSc1nnc2nc(C)cc(C)n12	-8	-2	7%	?	9%	5%	5.9
COc1ccc(NC(=O)C2CCCN2c2nn3c(=O)cc(C)nc3s2)cc1 (stereo not given)	-3	-7	14%	-0.6%	13%	22µM*	5.2
O=C(COC(=O)c1cc([N+](=O)[O-])ccc1NCCO)NCc1cccs1	-2	16	15%	-1.3%	-5%	-12%	2.2
COc1ccc(S(=O)(=O)N2CCN(c3ccc(C)cc3C)CC2)cc1OC	-5	18	-2%	-1.8%	-14%	-43%	1.8
COc1cc(C(=O)N=c2sccn2C)c([N+](=O)[O-])cc1OC	-6	-8	18%	0.3%	-1%	49%	nt
COc1ccc(CC(=O)Oc2cc(C)[nH]c(=O)c2[N+](=O)[O-])cc1	3	?	6%	-3.3%	3%	0%	5.6
CSc1nnc(NC(=O)c2ccco2)s1	-17	0	20%	0.0%	-7%	32%[15.4 µM]	-0.1
CC1(OC(=O)CCc2ccccc2)C(=O)C=C2C=C(c3ccc(C#N)cc3)N(CCc3c[nH]c4ccccc34)C=C2C1=O (stereo not given)	8	?	14%&-5%	0.4%	-9%	nt	-8.9[11.7 µM]
COC(=O)c1sc(S(=O)(=O)Nc2ccc(C)c(C)c2)c(C(=O)OC)c1C	-6	?	-8%	-2.1%	-5%	-73%[inhibitor]	-0.8
COc1cc(OC)cc(C(=O)Nc2nc(CC(=O)NCCc3ccccc3)cs2)c1	2	25	nt	1.1%	-15%	0%[15.4 µM]	nt
O=C(NCc1ccncc1)C(=O)NCC1OCCN1S(=O)(=O)c1ccc(F)cc1 (stereo not given)	-5	4	4%	-0.8%	5%	-52%[inhibitor]	nt
COc1ccc(-c2nnn(CC(=O)NCCc3c[nH]c4ccccc34)n2)cc1OC	-9	nt	-1%	0.0%	6%	4%	0.6
COc1ccc(NC(=O)CS(=O)(=O)c2ccc(F)cc2)cc1	-1	11	13%	nt	2%	-20%	-9.5
Cc1cccc[n+]1CC(=O)Nc1ccc([N+](=O)[O-])cc1Cl	-26	nt	1%	-3.6%	10%	?	1.4
NS(=O)(=O)c1cc(C(=O)Nc2ccc3c(c2)OCCCO3)ccc1Cl	2	9	18%	nt	-1%	-42%[inhibitor]	7.1
NC(=O)c1ccccc1N(Cc1ccccc1)S(=O)(=O)c1ccccc1	-6	-3	5%	nt	7%	-31%	0.4
COc1ccc(S(=O)(=O)n2nc(-c3ccc(Cl)cc3)cc2N)cc1OC	0	?	-2%	-0.1%	-28%	6%	1.0
O=C(CCCCC(=O)NNC(=O)COc1ccccc1)NNC(=O)COc1ccccc1	-13	3	-28%	-1.4%	12%	0%	7.2
CCc1ccc(-c2cc(C(=O)N3N=C(C(F)F)CC3(O)C(F)F)c3ccccc3n2)cc1 (stereo not given)	-27	-19	15%	22µM*	-4%	-33%[inhibitor]	2.2
CN(CCOc1ccc(CC2SC(=O)NC2=O)cc1)c1ccccn1 (stereo not given)	-4&8	nt	19%	4.4%&4.8%	?	nt	5.6
Cc1cc(C)n2nc(C(=O)OCC(=O)c3ccc(F)cc3)nc2n1	20	3	nt	-7.9%	-4%	-14%	nt
CCOC(=O)c1oc2c(CN3CCCCC3C)c(O)ccc2c(=O)c1-c1ccc(OC)c(OC)c1 (stereo not given)	0	6	-3%	-2.2%	-1%	-19%	3.4
O=C(COc1ncnc2ccc(Br)cc12)Nc1ccc(N2CCOCC2)cc1	3	-2	-8%	2.5%	9%	?	-0.7
Cc1ccc(CNC(=O)C2c3ccccc3C(=O)N3CCc4ccccc4C23)o1 (stereo not given)	4	-6	14µM*	-17%	-13%	?	-1.1
O=C(O)C(CCCCNS(=O)(=O)c1ccc(F)cc1)NS(=O)(=O)c1ccc(F)cc1 (stereo not given)	-11&-4	-4&-2	0%&10%	-0.6%	-1%&13%	13%	0.7&-17
COc1ccc(-n2c(C)ccc2C)c([N+](=O)[O-])c1	-1	5	10%	nt	9%	-9%[15.4 µM]	1.2
Cc1cccc(C(=O)NCCN(C)C)c1	-5	-3	10%	0.5%	7%	-36%[inhibitor]	5.3
O=C(CCC(=O)N1CCOc2ccccc21)NCCCN1CCN(Cc2ccccc2)CC1	-14	-10	12%	-0.3%	6%	-1%	-8.2
O=C(NCc1ccc(F)cc1)C(c1ccncc1)N(C(=O)c1csnn1)C1CC1 (stereo not given)	-11	6	9%	-3.9%	11%	16%	1.9
CCOC(=O)C(=CNc1ccc2c(c1)nnn2-c1ccc(Cl)cc1)C(=O)OCC	3	-22	-13%	2.0%	-27%	-31%[15.4 µM]	0.3
COC(=S)N/C(=N\S(=O)(=O)c1ccc(Cl)cc1)c1ccccc1	-9	-3	22µM*	-1.0%	2%	-26%	-0.4
CCN(CC(=O)NCc1cccnc1)S(=O)(=O)c1ccc(OC)cc1	-3	-13	14%	nt	4%	29%	1.0

Next part.
smiles	D2 potentiator	TRPV1 potentiator	Sfp inh	ClpP mod	gsp antagonist	gsp agonist	Menin MLL FP FL
CCc1ccc(N2CC(C(=O)OCC(=O)c3c(N)n(CC(C)C)c(=O)n(C)c3=O)CC2=O)cc1 (stereo not given)	-12	1	nt	1.6%	2%	6%	nt
COc1ccccc1-c1noc(CCCC(=O)N2CCOCC2)n1	-19	7	16%	-1.2%	1%	26%	2.0
Cc1ccc2nc(N3CCN(Cc4nnnn4C4CCCC4)CC3)c(C#N)cc2c1	1	18	11%	-9.2%	1%	-20%	2.1
CCOC(=O)c1cc2nc(-c3ccccc3)cc(C)n2n1	-5	0	6%	-0.8%	3%	87%[15.4 µM]	1.6
Cc1ccc(S(=O)(=O)c2nc(-c3ccco3)oc2SC(C)C)cc1	-10	-5	-2%	0.3%	-16%	31%	7.0
COc1ccc(NC(=O)C/C(C)=N/NC(=O)C2CCCCC2)c([N+](=O)[O-])c1	-9	5	31%	nt	2%	-6%[15.4 µM]	2.8
NNC(=O)CN1C(=O)Nc2ccc(Br)cc2C1c1ccccc1 (stereo not given)	-7	3	-17%	0.8%	8%	12%	6.2
Cc1ccc(-c2n[nH]c(=S)c3ccccc23)cc1	-18	2	-5%	0.5%	-5%	?	0.3
O=C(CSc1ccc(-c2ccc(Cl)cc2)nn1)NC1CCCC1	0	5	8%	0.5%	9%	-25%	-4.4
COC(=O)c1ccc(N2CCOCC2)c(NC(=O)c2cc3ccccc3o2)c1	-8	nt	nt	nt	-21%	-4%[15.4 µM]	nt
CCCc1nc(NCCO)c(C#N)c2c1CCCC2	-8	-18	13%	nt	-2%	6%[15.4 µM]	-3.3
CCC1C(c2ccccc2)N(C)C(c2ccccc2)CC1(O)c1ccccc1 (stereo not given)	-16	0	25%	nt	-5%	19%	-0.9
CC(C)c1nnc(NC(=O)CC23CC4CC(CC(C4)C2)C3)s1	-2	-23	5%	-0.6%	8%	9%	2.3
COC(=O)[C@@H](C)NC(=O)c1ccc2oc(CCc3ccccc3)nc2c1	2	6	9%	-1.1%	-9%	0%	-5.1
CC(NC(=O)C12CC3CC(CC(C3)C1)C2)c1ccc(F)cc1 (stereo not given)	-4	?	17%	nt	2%	-30%[15.4 µM]	-8.4
Cn1ccnc1C(=O)c1cccc(Br)c1	-9	?	10%	nt	12%	3%[15.4 µM]	0.0
